Arbovirus inh: blocks arbovirus infection | arbovirus infection cell-based antiviral screen | inhibition, % at 10 µM | 200,000 tested, 0.37% active;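 active means inhibition from about 30%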;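 further: bluetongue infection of BSR cells; cell survival read as ATP light after 72 h; 0% = infected wells without compound and 100% = uninfected wells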
YopH PTP inh: YopH (Yersinia) phosphatase inhibition. fluorescence Ex485/Em525. inhibition, %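 (about 10 µM by stock and volumes)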. 140,000 tested, 0.16% active;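 active means inhibition of 50% or more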;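 further: controls were vehicle for no effect and minimum signal wells for full effect; inactives centre near -20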
RecA intein inh: Mtb RecA intein splicing inhibition; cell-free RecA intein splicing, fluorescence; 290,000 tested, 0.75% active; AID 2221; inhibition, %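 (about 9 µM by stock and volumes)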; in the data active means inhibition above about 30%; inconclusive means no clear call, values can overlap the other calls;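 further: 0% = vehicle wells and 100% = reference inhibitor control wells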
Target sequence (P9WHJ3 whole entry, looked up): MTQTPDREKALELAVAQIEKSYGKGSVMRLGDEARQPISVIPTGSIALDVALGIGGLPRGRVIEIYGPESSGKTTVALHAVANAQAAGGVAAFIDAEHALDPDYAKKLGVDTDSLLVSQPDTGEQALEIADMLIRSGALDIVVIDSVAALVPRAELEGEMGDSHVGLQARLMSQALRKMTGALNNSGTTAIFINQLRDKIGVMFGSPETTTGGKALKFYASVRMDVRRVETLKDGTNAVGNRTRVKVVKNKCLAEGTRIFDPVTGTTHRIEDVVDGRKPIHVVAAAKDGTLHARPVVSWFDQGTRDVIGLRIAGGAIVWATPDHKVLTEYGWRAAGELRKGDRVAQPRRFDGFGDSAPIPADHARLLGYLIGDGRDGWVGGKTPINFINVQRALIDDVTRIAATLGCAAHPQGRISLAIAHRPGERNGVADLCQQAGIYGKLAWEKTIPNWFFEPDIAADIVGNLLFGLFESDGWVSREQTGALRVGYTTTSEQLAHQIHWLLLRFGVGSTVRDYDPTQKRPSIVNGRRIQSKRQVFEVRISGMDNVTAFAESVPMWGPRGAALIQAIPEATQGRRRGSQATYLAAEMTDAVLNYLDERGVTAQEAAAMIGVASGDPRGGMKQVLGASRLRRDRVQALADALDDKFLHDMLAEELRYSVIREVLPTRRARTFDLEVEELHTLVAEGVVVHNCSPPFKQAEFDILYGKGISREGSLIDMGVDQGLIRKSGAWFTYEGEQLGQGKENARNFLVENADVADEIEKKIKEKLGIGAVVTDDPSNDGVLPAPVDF
Mtb betalactam: beta-lactam sensitization of Mtb H37Rv. M. tuberculosis H37Rv growth with meropenem, percent inhibition; hits of this screen are not shown here. inhibition, % at 25 µM. 330,000 tested, 0.27% active. AID 434955;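 active means about 74% or more and at least 40 points above the plate without the antibiotic, then above 30% in a dose series; inconclusive means first-round hits that could not be retested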;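 further: growth measured after seven days incubation then overnight dye step; 0% = bacteria only wells and 100% = bacteria with antibiotic; twin plates without the antibiotic show which effects depend on it; some results filed as inactive read as strong as hits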
Mtb growth: M. tuberculosis H37Rv growth inhibitors, H37Rv strain (AID 1626); M. tuberculosis H37Rv growth inhibition; higher % means a stronger effect; 220,000 tested, 0.95% active; inhibition, % at 10 µM, or IC50 in µM where a hit was titrated;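 active means confirmed in a dose series; inconclusive means inhibition above 80% but not taken into the dose series; inactive means below 80% or under 30% at every dose of the series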;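 further: bacteria incubated seven days before Alamar blue readout; 0% = bacteria only wells and 100% = bacteria with antibiotic wells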
Arbovirus inh repeat: recorded beside Arbovirus inh, whose call it bears; inhibition, %; measured here: 10K subset replicate screen; many hits read low in the repeat;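 first of two repeat runs on a subset; 0% = infected and 100% = uninfected wells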
Active calls of the source: *; ? = inconclusive; / = not tested or not shown. Some of the compounds tested; rates above refer to the full screens.

SMILES	Arbovirus inh	YopH PTP inh	RecA intein inh	Mtb betalactam	Mtb growth	others
COc1ccc(OC)c(S(=O)(=O)N(C)CC(=O)N2CCN(c3ccc(F)cc3)CC2)c1	4.6	21.1	3.2	-3.9	4.5%
O=c1c2ccccc2nnn1CSc1nnc2sc3ccccc3n12	24.0	8.5	1.1	-10.3	/
CC(C)c1ccc(NC2CCCN(C(=O)c3ccsc3)C2)cc1 (stereo not given)	/	/	1.9	11.3	/
O=S1(=O)CCC(N2CCOCC2)C1 (stereo not given)	2.0	-11.3	-0.9	-6.5	-1.2%
COC(=O)c1ccc(CSc2nc(-c3ccccc3)cs2)o1	8.9	-26.0	/	3.7	2.2%
CCOC(=O)N1CCC(N2C(=O)c3ccc(C(=O)NCCC(C)C)cc3C2=O)CC1	/	/	-2.1	-1.1	/
C/C(=N\NC(=O)CN1CCOCC1)C(C)(C)C	-0.3	-48.8	-1.0	10.9	-5.7%
CCn1nnnc1SCC(=O)NC1CCCC1	12.2	-115.3	-1.7	-8.5	-8.8%
Cc1ccc(OCC(=O)Nn2cnc3ccccc32)cc1	4.1	-10.1	2.8	4.7	-8.1%
Cn1c(=O)c(C(=O)CN2CCN(S(=O)(=O)c3ccccc3)CC2)c(N)n(Cc2ccccc2)c1=O	0.0	-18.6	3.6	-6.5	-1.7%
O=C(C[n+]1ccc2ccccc2c1)c1ccc(NC(=O)c2ccccc2)cc1	-8.7	/	/	50.1	9.7%
COc1cccc(C(=O)NCC(=O)N/N=C/c2c(C)[nH]c3ccccc23)c1	/	/	-0.9	1.7	/
COc1cc(-c2nnc(SCC(=O)N3CCOCC3)o2)cc(OC)c1OC	/	/	-0.3	-3.9	/
O=c1[nH]c(CN2CCN(Cc3ccc4c(c3)OCO4)CC2)nc2ccccc12	-1.2	8.0	-0.3	-9.1	-4.6%
CC(C)CCn1c(Oc2ccc(Cl)cc2)nc2c1c(=O)n(C)c(=O)n2C	6.1	-17.9	0.7	51.5	21.4%
O=C(CSc1ccc(-c2ccco2)nn1)NCc1ccc(F)cc1	-8.9	-31.8	-0.5	-9.2	-1.0%
Cc1ccc2nc(-c3ccccc3)cc(C(=O)N3CCc4ccccc4C3)c2c1	-9.8	-23.0	14.9	6.7	/
Cc1nc(Nc2ccccc2)sc1C(=O)c1ccc(F)cc1	/	/	6.6	35.6	/
Cc1cc(NC(=O)c2cc3ccccc3o2)cc(C)c1OCC(=O)N1CCOCC1	-10.2	-5.6	1.9	6.1	-1.3%
CCCc1cc(=O)[nH]c2nnc(SCC(=O)Nc3nnc(SCC)s3)n12	/	/	-1.4	-2.1	/
O=C(CCc1nc2ccccc2c(=O)[nH]1)Nc1nnc(SCc2ccccc2)s1	/	/	-1.9	-13.9	/
O=C(NCc1ccccn1)c1ccc(-c2ccccc2)cc1	-5.1	/	2.8	-0.6	-9.9%
O=C(Nc1c(C(=O)N2CCOCC2)cnn1-c1ccccc1)c1cccc(F)c1	/	/	1.0	-0.8	/
N=C1C(c2nc(-c3ccc(Cl)cc3)cs2)=C(O)CN1NC(=O)c1ccc(O)cc1	/	/	-0.8	-6.5	-6.3%
COc1cccc(C(=O)NC2=NCCS2)c1OC	1.5	-21.9	0.3	-11.2	-4.6%

Continued; the last 6 above are carried over.
SMILES	Arbovirus inh	YopH PTP inh	RecA intein inh	Mtb betalactam	Mtb growth	others
CCCc1cc(=O)[nH]c2nnc(SCC(=O)Nc3nnc(SCC)s3)n12	/	/	-1.4	-2.1	/
O=C(CCc1nc2ccccc2c(=O)[nH]1)Nc1nnc(SCc2ccccc2)s1	/	/	-1.9	-13.9	/
O=C(NCc1ccccn1)c1ccc(-c2ccccc2)cc1	-5.1	/	2.8	-0.6	-9.9%
O=C(Nc1c(C(=O)N2CCOCC2)cnn1-c1ccccc1)c1cccc(F)c1	/	/	1.0	-0.8	/
N=C1C(c2nc(-c3ccc(Cl)cc3)cs2)=C(O)CN1NC(=O)c1ccc(O)cc1	/	/	-0.8	-6.5	-6.3%
COc1cccc(C(=O)NC2=NCCS2)c1OC	1.5	-21.9	0.3	-11.2	-4.6%
CCOC(=O)c1ccc(NC(=O)N2CCc3ccccc3C2)cc1	/	/	6.2	93.3	/
CCc1cccc(C)c1NC(=O)c1cc(C)oc1C	-4.7	21.8	2.6	-5.0	-1.5%
CCCCNC(=O)c1sc(=S)n2c1[nH]c(=O)c1ccccc12	6.1	-7.3	0.6	-6.2	-0.7%
CC(C)OP(=O)(OC(C)C)C(Nc1ccccc1)c1ccc2c(c1)OCO2 (stereo not given)	2.7	-2.1	1.7	?	-0.3%
O=C(/C=C\c1ccccc1)Nc1nccs1	-6.0	-3.7	-2.3	2.9	1.0%
Cc1ccc(-c2cc(C(=O)Nc3cc(C)ccc3C)[nH]n2)c(O)c1	1.8	-21.0	0.1	-4.9	-2.1%
Cc1cccn2c(=O)c(/C=C(\C#N)C(N)=O)c(N3CCCCCC3)nc12	/	/	2.4	4.9	/
CCOC(=O)N1CCN(C(=O)CN(c2ccc(Cl)c(C(F)(F)F)c2)S(C)(=O)=O)CC1	-0.7	-34.2	-0.3	2.6	-6.5%	Arbovirus inh repeat=6.0
Cc1sc2nc(C(C)C)nc(SCC(=O)NCc3ccco3)c2c1C	-8.9	-5.2	3.9	7.0	6.3%
CC1CCN(C(=O)C2CCC(C)(C(=O)O)C2(C)C)CC1 (stereo not given)	-10.6	-26.0	0.8	0.8	-0.4%
C=CCSc1ncc(C(=O)OCC)c(N)n1	-2.9	/	-3.8	-7.5	29.5%
C/C(=N\NC(=O)c1nnn(-c2nonc2N)c1C(C)C)c1cc(C)sc1C	/	/	-1.9	1.2	/
CC(C)C(=O)NCc1cc(-c2ccccc2)no1	0.3	/	-1.4	-4.4	4.4%
O=C(Cn1cccc1C(=O)c1ccccc1)NCCc1ccc(Cl)cc1	/	/	0.4	2.5	/
O=C(COc1ccccc1)NC(NC(=S)Nc1ccccc1O)C(Cl)(Cl)Cl (stereo not given)	-17.1	-15.9	2.8	6.6	-3.0%
O=C(Cn1nnc(-c2ccc(Cl)cc2)n1)NC1CC2CCC1C2 (stereo not given)	-7.7	-44.2	1.2	-5.2	4.1%
Cc1ccc(NC(=S)Nc2ncccc2C)c(C)c1	7.5	-38.6	/	/	50.2%
COc1ccc(NC(=O)C(NC(C)=O)C(=O)NCc2ccccc2)cc1 (stereo not given)	10.4	-1.0	-3.2	0.0	1.6%
Cc1ccc2c(CSc3nnc(C4CC4)n3N)cc(=O)oc2c1	3.5	-27.9	-0.9	2.1	-6.8%
CC(C)OCCCNC(=O)CN1CCN(Cc2ccc(Cl)cc2)C1=O	/	/	22.4	0.1	/
CC(C)c1ccc(S(=O)(=O)Nc2ccc(N3CCOCC3)cc2)cc1	/	/	-2.1	-4.4	/
COc1cccc(OCc2nn3c(=O)c(-c4ccccc4)nnc3s2)c1	/	/	0.2	-3.5	/
CCOC(=O)c1cc(C#N)c(N2CCNCC2)nc1C(F)(F)F	/	/	/	-7.5	4.5%
CCCC1c2ccsc2CCN1C(=S)NC (stereo not given)	/	/	2.0	-6.3	-1.2%
OC[C@@H](O)[C@@H](O)[C@H](O)[C@@H](O)CO	/	/	0.4	-8.2	/
Next section
SMILES	Arbovirus inh	YopH PTP inh	RecA intein inh	Mtb betalactam	Mtb growth	others
O=C(COc1ccc(Cl)c(Cl)c1)NN1C(=O)C2C(C1=O)C1C=CC2C12CC2 (stereo not given)	6.6	/	-0.6	0.3	2.1%
COc1cccc(NC(=O)CSc2nnc(-c3ccco3)c(-c3ccco3)n2)c1	/	/	14.0	-3.8	/
CCOC(=O)N1CCN(C(=O)Nc2ccc(NC(=O)N3CCN(C(=O)OCC)CC3)cc2)CC1	-3.5	/	-3.7	-13.9	-0.5%
Cc1ccc(C(O)P(=O)(OCc2ccccc2)c2ccc(N(C)C)cc2)cc1 (stereo not given)	/	/	-1.8	24.7	-1.3%
COc1ccccc1CNC(=O)CN1C(=O)C(C)N(c2ccc(C)cc2)C1=O (stereo not given)	-4.5	-41.5	-2.2	?	-13.0%
CC(NC(=O)CN(c1ccc(Cl)cc1)S(C)(=O)=O)c1ccccc1 (stereo not given)	/	/	-0.2	-0.8	/
Cc1cc(=O)n2c(ccc3ccccc32)c1C#N	-6.9	-16.6	-7.9	-9.5	-5.4%
Cc1ccc(S(=O)(=O)N(C)C)cc1NC(=O)c1sccc1Cl	/	/	-2.8	-4.5	4.9%
CC(C)=CC(=O)Nc1nnc(C)s1	-1.0	36.6	-2.1	-5.4	-6.0%
CCCC[C@@H]1CNC(=S)N1CCC12CC3CC(CC(C3)C1)C2	7.0	/	-4.6	-0.8	12.8%
Cc1ccc(S(N)(=O)=O)cc1NC(=O)C(c1ccccc1)c1ccccc1	/	/	0.7	-7.5	/
COc1ccc(C2=NS(=O)(=O)N(C)C(C(=O)N3CCC4(CC3)OCCO4)=C2)cc1OC	/	/	-5.8	4.7	/
O=C(O)C12C3CCCC1C32c1ccccc1 (stereo not given)	7.6	-27.0	2.2	-3.4	-1.3%
COc1ccc(OC(=O)c2cccnc2)cc1	-10.5	-22.1	-3.3	0.1	0.7%
COCCNC(=O)C1CCCN(c2ncccn2)C1 (stereo not given)	7.7	-31.7	0.5	-5.7	-2.1%
CCCCCNC(=O)C(C)NS(=O)(=O)c1ccc(OC)cc1 (stereo not given)	4.4	-42.3	/	-7.5	2.4%
Cc1c(C(=O)OCC(=O)NCCN2C(=O)CSC2=O)oc2c1ccc1ccccc12	1.2	-15.0	-0.9	4.0	-5.6%
COC(C)(C)[C@]12CC(O)(c3ccccc3)ON1[C@H]1CCCCC1N2O (stereo not given in full)	1.8	-18.9	-3.0	-0.9	-2.6%
O=C(NCCCN1CCCC1=O)c1ccc2c(c1)NC(=O)c1ccccc1S2	3.2	-11.8	-1.9	2.3	-3.2%
CCn1c(C)cc(/C=C2/NC(=O)N(CC(=O)Nc3cccc(C)c3)C2=O)c1C	-11.3	-8.6	-6.8	4.4	-6.7%
CSc1cccc(NC(=O)C2CCN(S(=O)(=O)c3ccc4c(c3)NC(=O)CO4)CC2)c1	/	/	8.2	-4.7	/
Cc1sc2ncn(CC(=O)NCCCC(=O)N3CCN(c4ccccc4)CC3)c(=O)c2c1C	2.4	15.3	/	-5.6	0.6%
CCCC(=O)Nc1ccccc1-c1nnc(SCC)[nH]c1=O	/	/	0.2	-1.7	5.0%
Cc1cc2cc(C(c3nnnn3C(C)(C)C)N(Cc3ccco3)CC3CCCO3)c(=O)[nH]c2cc1C (stereo not given)	-5.8	-32.6	1.6	0.1	-3.5%
CCC(C)Sc1nc2c(cnn2-c2ccccc2)c(=O)[nH]1 (stereo not given)	11.6	-28.8	5.9	-0.1	6.9%
COc1ccccc1CC(=O)NC1CCN(Cc2ccccc2)CC1	/	/	-0.5	4.3	/
Cc1ccc(OCC(=O)Oc2cccc(C)c2C)cc1	/	/	5.6	0.5	/
O=C(COC(=O)c1ccccn1)Nc1ccccc1Cl	1.4	-15.3	-0.4	-0.2	-8.4%

Part of the list above in order of molecular weight, rising:
SMILES	Arbovirus inh	YopH PTP inh	RecA intein inh	Mtb betalactam	Mtb growth	others
Cc1cc(=O)n2c(ccc3ccccc32)c1C#N	-6.9	-16.6	-7.9	-9.5	-5.4%
CCCCCNC(=O)C(C)NS(=O)(=O)c1ccc(OC)cc1 (stereo not given)	4.4	-42.3	/	-7.5	2.4%
O=C(Cn1nnc(-c2ccc(Cl)cc2)n1)NC1CC2CCC1C2 (stereo not given)	-7.7	-44.2	1.2	-5.2	4.1%
CC(NC(=O)CN(c1ccc(Cl)cc1)S(C)(=O)=O)c1ccccc1 (stereo not given)	/	/	-0.2	-0.8	/
Cc1sc2ncn(CC(=O)NCCCC(=O)N3CCN(c4ccccc4)CC3)c(=O)c2c1C	2.4	15.3	/	-5.6	0.6%
